Tgondii IFNg = inhibitors of Toxoplasma gondii growth with IFN-gamma. Toxoplasma gondii growth in IFN-gamma-treated host cells; active compounds read low; reference of the scale not given here. AID 1259416. hit rate 3.8% among 69,000. activity change, negative = inhibition, %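 (about 20 µM by stock and volumes)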;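 active = below -70%; inconclusive = fit judged invalid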;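 also: host cells are HeLa cells infected with Toxoplasma gondii; parasite growth read as luciferase light; one replicate is shown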
Active calls of the source: *; ? = inconclusive; & = joins results of further samples.

compound | Tgondii IFNg
C[C@@H]1CN([C@H](C)CO)C(=O)CCCn2nncc2CO[C@H]1CN(C)C(=O)Oc1cccc2ccccc12 | 393
CCc1ccc(NC(=O)c2cc3cccnc3n(Cc3ccccc3F)c2=O)cc1 | 49
CN1CCOCC2(CCCNC2)C1 (configuration not stated) | -6
COC(=O)c1ccc(NC(=O)c2cc3cccnc3n(Cc3ccc(Cl)cc3)c2=O)cc1 | 30
O=C(CCN1CCC(c2cccc(O)c2)CC1)Nc1cccnc1 | -5
CCN(CC)C(=O)C1=NOC2(CCNC2)C1 (configuration not stated) | -57
O=C([C@H]1N[C@H]2c3cccc(=O)n3C[C@H]2[C@@H]1CO)N1CCCCC1 | -2
CC(N)Cn1ccc2cc(F)c(Cl)cc21 (configuration not stated) | 7
CCN1CCc2c(COCC(=O)N3CCCC3)cncc2C1 | -9
Cc1ccoc1C(=O)N1CCOC2CNCC[C@@H]21 (some centres not stated) | 15

Other entries
compound | Tgondii IFNg
Cc1cc(CN2C[C@H]3CN(Cc4ccsc4)CCO[C@@H]3C2)no1 | -60
COC1=CC(=O)OC(/C=C/c2ccccc2)C1 (configuration not stated) | 26&16
C=CCNC(=O)c1cc2cccnc2n(Cc2ccccc2F)c1=O | 31
COc1cccc(NC(=O)c2cc3cccnc3n(Cc3ccccc3F)c2=O)c1 | 45
CCNc1nc(NC(C)C)nc(SC)n1 | 50
CC(C)c1ccc2c(c1O)CC[C@H]1C3=C(CC[C@]21C)C(=O)OC3 | -19
COc1ccc(CCNC(=O)c2cc3cccnc3n(Cc3ccc(Cl)cc3)c2=O)cc1OC | -10
O=C(Nc1ccc(Oc2ccccc2)cc1)c1cc2cccnc2n(Cc2ccc(F)cc2)c1=O | 80
COc1ccc(CNC(=O)c2cc3cccnc3n(Cc3ccc(F)cc3)c2=O)cc1 | -43
Cn1cc(C(=O)N2CC3(CCN(Cc4cccnc4)C3)C2)cn1 | -67

Following part.
compound | Tgondii IFNg
CC[C@@]1(O)C[C@H](O)c2c(cc3c(c2O)C(=O)c2c(O)ccc(O)c2C3=O)[C@H]1C(=O)OC | 14
C=CCN1C[C@H](C)N([C@@H](c2ccccc2)c2ccc(C(=O)N(CC)CC)cc2)C[C@H]1C | 9
COc1ccc(/C=C/C(=O)C2C(=O)N(C)C3(C)CC2c2ccccc2O3)cc1 (configuration not stated) | -26
CCCCS(=O)(=O)N1C[C@H]2CNC[C@@H]2C1 | -9
CC(=O)OCC1=C(C(=O)O)N2C(=O)[C@@H](N)[C@H]2SC1 | 17
COC(C)(C)CCC[C@H](C)C/C=C/C(C)=C/C(=O)OC(C)C | 20
CN1CC[C@H]2OCC[C@]2(C(=O)NCCc2ccccn2)C1 | 45
O=C(NCc1ccco1)c1cc2cccnc2n(Cc2ccccc2)c1=O | -45
Cc1cc(C(=O)N2CCN3CCN(C)CC3C2)c(=O)n(C)c1C (configuration not stated) | -69
c1nc(NCC2CC2)nc2c1COCC21CCN(CC2CC2)C1 (configuration not stated) | -2

The list continues:
compound | Tgondii IFNg
O=C(Nc1ccc(F)cc1F)c1cc2cccnc2n(Cc2ccccc2F)c1=O | -5
CCNC(=S)N(C)CCc1cc2c(c(OC)c1C=C1C(=O)N(C)C(=O)N(C)C1=O)OCO2 | 15
CCNC1(c2cccs2)CCCCC1=O (configuration not stated) | 9
O=C(c1cccs1)N1CCN2CC(OCc3cccnc3)CC2C1 (configuration not stated) | -20
C=CCOC[C@@H]1CC[C@H]2[C@H](CCN2CC2CC2)O1 | 9
COc1cc([C@@H]2c3cc4c(cc3[C@H](OC(C)=O)[C@H]3COC(=O)[C@H]23)OCO4)cc(OC)c1OC | -82*
C/C(=C\c1csc(C)n1)[C@@H]1C[C@@H]2O[C@@H]2CCC[C@H](C)[C@H](O)[C@@H](C)C(=O)C(C)(C)[C@@H](O)CC(=O)O1 | -68
c1cnc(N2CCC23CCN(Cc2ccncc2)C3)nc1 (configuration not stated) | -11
Cn1cc(C(=O)NCc2cncc3c2CCNC3)cn1 | 4
O=C(NCc1cccs1)c1cc2cccnc2n(Cc2ccc(F)cc2)c1=O | -10

Continuation:
compound | Tgondii IFNg
O=C(NCc1ccc(Cl)cc1)c1cc2cccnc2n(Cc2ccc(F)cc2)c1=O | -57
C[C@@H]1O[C@@H](O[C@H]2CC[C@]3(C=O)C4CC[C@]5(C)[C@@H](C6=CC(=O)OC6)CC[C@]5(O)C4CC[C@]3(O)C2)[C@H](O)[C@H](O)[C@H]1O (some centres not stated) | -65
O=C(Nc1ccc(Br)cc1)c1cc2cccnc2n(Cc2ccccc2)c1=O | 393
COc1ccccc1CCNC(=O)c1cc2cccnc2n(Cc2ccccc2)c1=O | 109
CCOC(=O)c1ccc(NC(=O)c2cc3cccnc3n(Cc3ccccc3F)c2=O)cc1 | 17
CC(=O)N1N=C(c2cccnc2)OC1(C)C | -52
Cc1ccc(/C=C/C(=O)C2C(=O)N(C)C34CCCCC3C2c2ccccc2O4)cc1 (configuration not stated) | 0
CC(C)(c1ccc(OCC2CO2)cc1)c1ccc(OCC2CO2)cc1 (configuration not stated) | 20
COC1=CC=C2C3Cc4ccc(OC)c5c4C2(CCN3C)C1O5 (configuration not stated) | 7
COCC(=O)N1CC[C@@]2(CN(C)C[C@@H]2COCc2ccccn2)C1 | 4

More entries
compound | Tgondii IFNg
O=C(Cc1ccncc1)N1CCCCN2[C@@H](CO)[C@@H](c3ccc(C#Cc4ccccc4F)cc3)[C@@H]2C1 | -69
C[C@]12CC[C@H](O)C[C@H]1CC[C@@H]1[C@@H]2CC[C@]2(C)[C@@H](c3ccc(=O)oc3)C[C@H]3OC132 (some centres not stated) | ?
C=CCOCc1cncc2c1CCN(C1CCOC1)C2 (configuration not stated) | 0
Cn1cc(CN2CCC3(CC2)C(=O)Nc2ccccc23)cn1 | -6
CN1CCN2CCN(C(=O)c3cc(=O)n(C)c(=O)n3C)CC2C1=O (configuration not stated) | 40
Oc1ccc2c3c1O[C@H]1c4c(c5ccccc5n4Cc4ccccc4)C[C@@]4(O)C(C2)N(CC2CC2)CC[C@]314 | 39
Cc1cccc(CN2CC[C@H]3[C@H](CO[C@@H]3CN(C)C)C2)n1 | 8
Cc1cc(C)c2c(CC(=O)N(CCN(C)C)C3CCS(=O)(=O)C3)c(C)[nH]c2c1 (configuration not stated) | 140
c1ccc([C@@H]2CN(c3nnnn3-c3ccccc3)[C@@H]3C4CCN(CC4)[C@@H]32)cc1 | 1
CC12CC[C@H]3[C@@H](CCC4(O)C[C@H](O)CCC34/C=N/NC(=O)Cc3ccccc3)C1(O)CCC2C1=CC(=O)OC1 (some centres not stated) | -10

A different layout for some results above.
canonical_smiles: COc1ccc(CNC(=O)c2cc3cccnc3n(Cc3ccc(F)cc3)c2=O)cc1
  Tgondii IFNg = -43

canonical_smiles: Cn1cc(C(=O)N2CC3(CCN(Cc4cccnc4)C3)C2)cn1
  Tgondii IFNg = -67

canonical_smiles: CC[C@@]1(O)C[C@H](O)c2c(cc3c(c2O)C(=O)c2c(O)ccc(O)c2C3=O)[C@H]1C(=O)OC
  Tgondii IFNg = 14

canonical_smiles: C=CCN1C[C@H](C)N([C@@H](c2ccccc2)c2ccc(C(=O)N(CC)CC)cc2)C[C@H]1C
  Tgondii IFNg = 9

Later entries:
compound | Tgondii IFNg
COCC(=O)NC[C@@]12COC[C@H]1CN(Cc1c(C)noc1C)C2 | 0
O=C(NCCN1CCOCC1)c1cc2cccnc2n(Cc2ccccc2)c1=O | 3
C=CCOC(=O)N1CCOC2(CNCCOC2)C1 (configuration not stated) | 10
O=C(NCc1ccccc1)c1cc2cccnc2n(Cc2ccccc2F)c1=O | -34
CN1c2ccc(Br)cc2[C@H]2NCC[C@H]2[C@H]1CO | 18
O=C(Nc1ccc(F)c(F)c1)c1cc2cccnc2n(Cc2ccccc2)c1=O | 80
CC1(C)C(=O)N(c2ccc(C#N)c(C(F)(F)F)c2)C(=O)N1CCCCO | 7
Cc1cccc(CNC(=O)c2c(O)c3cccnc3n(Cc3ccccc3)c2=O)c1 | -119*
CN1CCC2(CC1)C(=O)N(C)C2c1ccccc1 (configuration not stated) | 30
Cn1nc(C2NCCc3[nH]cnc32)c2c(Cl)cccc21 (configuration not stated) | -22

More compounds
compound | Tgondii IFNg
C/C=C/CC(=O)N1CCCC2(CCN(C)CC2)CC1 | -1
Cc1csc(S(=O)(=O)N2CCC3(CCNCC3)C2)c1 | -8
CC(C)N1C(=O)C2(CCN(C3CCOC3)CC2)c2ccccc21 (configuration not stated) | -6
Cc1c(C(N)=O)ncn1Cc1ccc(Cl)cc1 | -22
c1ccc(CN2CCOCC3(CCN(Cc4ccco4)C3)C2)nc1 (configuration not stated) | 29
Fc1ccc(C(OCCN2CCCC2)c2ccc(Br)cc2)cc1 (configuration not stated) | -62
O=C1[C@@H]2CN(CC3CC3)C[C@H]2CN1Cc1ccncc1 | -7
Cn1cc(CN2CC[C@H]3[C@@H]2CCN3C(=O)Cc2cccc(F)c2)cn1 | -6
O=C(Cc1ccncc1)N1CCCCN2[C@H](CO)[C@@H](c3ccc(C#Cc4ccccc4F)cc3)[C@@H]2C1 | -32
CN(C)C(=O)C1CCC2(CCNCC2)CO1 (configuration not stated) | -18

Additional structures
compound | Tgondii IFNg
CC(C)C[C@H](NC(=O)[C@@H]1CCCN1C(=O)[C@@H](N)Cc1ccc(O)cc1)C(=O)NCC(N)=O | 12
COc1ccccc1[C@@H]1CN(C(=O)Cn2nccc2C)[C@@H]2C3CCN(CC3)[C@@H]21 | -5
Cc1cc(NC(=O)CN2C[C@@H](c3ccccc3)[C@@H]3[C@H]2C2CCN3CC2)no1 | -49
COc1ccc(/C=C/c2cc(O)cc(O)c2)cc1 | 132
O=C(Nc1cccc(Cl)c1)OC1CN2CCC1CC2 (configuration not stated) | -78*
O=C(O)[C@H]1[C@H](CO)[C@H]2Cn3c(ccc(-c4cccnc4)c3=O)[C@@H]1N2C(=O)Nc1cc(F)ccc1F | 3
COCCN1C[C@H](OCc2cccnc2)[C@@H]2COC[C@@H]21 | -42
Cc1cc(C)cc(CN2CCC3(CCNCC3)C2)c1 | -18
CCn1c(C2CCCNC2)nn(CC(F)F)c1=O (configuration not stated) | -9
CN(C)[C@@H]1CCN(C(=O)Cc2ccc(F)cc2)[C@H]1Cc1cnn(C)c1 | 3

Going on with the list.
compound | Tgondii IFNg
O=C(NCCc1c[nH]c2ccccc12)c1cc2cccnc2n(Cc2ccc(F)cc2)c1=O | -41
CCCCc1ccc(NC(=O)c2cc3cccnc3n(Cc3ccccc3)c2=O)cc1 | 34
CCN1CC2CC(C(=O)NCC3CC3)C(C1)O2 (configuration not stated) | -5
COC[C@@]12COC[C@@H]1CN(Cc1ccc3ccccc3n1)C2 | -41
CC(Cc1ccccn1)N(C)Cc1ccc2c(c1)OCCO2 (configuration not stated) | 5
Cc1ccc(N2CCO[C@@H]3CNCC[C@H]3C2)nn1 | 4
CC(CCc1ccccc1)NC(=O)c1cc2cccnc2n(Cc2ccc(F)cc2)c1=O (configuration not stated) | -42
Cc1nc(C(F)(F)F)nc(N2CCC3(CCN(C)C3)CC2)c1C | -13
Cc1ccc(NC(=O)c2cc3cccnc3n(Cc3ccc(F)cc3)c2=O)cc1F | -35
CCNC(=O)[C@H]1O[C@@H](n2cnc3c(N)ncnc32)[C@H](O)[C@@H]1O | 7&8

(next part)
compound | Tgondii IFNg
COCCNC(=O)[C@@H]1CCO[C@@H]2CCN(Cc3cc(C)on3)C[C@H]21 | -21
COc1ccc2c(c1)C1(CCN(C(=O)c3cccc4[nH]ccc34)CC1)CC2CC(=O)O (configuration not stated) | 44
NC(=O)C[S@@](=O)C(c1ccccc1)c1ccccc1 | 9
Cc1cccc(CN2C[C@H]3CN(c4ccsc4)C(=O)[C@@H]3C2)n1 | -12
CN(c1ncccn1)C1COC2(CCCN(CC(=O)O)C2)C1 (configuration not stated) | -35
Cc1cc(OC(=O)N(C)C)nc(-c2cccs2)n1 | 8
O=C1OC2(CCN(Cc3cc4n(n3)CCNC4)CC2)c2ccccc21 | -12
CCOc1ccccc1NC(=O)c1cc2cccnc2n(Cc2ccccc2F)c1=O | 1
CCN[C@@H](C)Cc1cccc(C(F)(F)F)c1 | 11
O=C(NC1CCCCCCCCCCC1)c1cc2cccnc2n(Cc2ccc(F)cc2)c1=O | -57

(continued)
compound | Tgondii IFNg
Cn1cccc1CN1CC2(CCN(Cc3cccnc3)C2)C1 | -11
Cc1cccc(CN2CC[C@@H]3OCC[C@@H](c4nnc(C)o4)[C@@H]3C2)n1 | 0
COC(=O)c1ccccc1NC(=O)c1cc2cccnc2n(Cc2ccccc2F)c1=O | 71
CC[C@@H]1[C@@H](C)O[C@@](O)([C@@H](C)[C@H](O)[C@H](C)[C@H]2OC(=O)/C=C/C=C/[C@H](C)[C@H]([C@@H](C)[C@@H](O)[C@H](C)[C@@]3(O)C[C@@H](O[C@H]4C[C@H](O)[C@H](O)[C@H](C)O4)[C@H](CC)[C@@H](C)O3)OC(=O)/C=C/C=C/[C@H]2C)C[C@H]1O[C@H]1C[C@H](O)[C@H](O)[C@H](C)O1 | -75*
O=C(Nc1ccc(Cl)cc1)c1cc2cccnc2n(Cc2ccc(F)cc2)c1=O | 0
CCOC(=O)c1ccc(NC(=O)c2cc3cccnc3n(Cc3ccc(F)cc3)c2=O)cc1 | 26
COc1ccc(OC)c(C(O)C(C)N)c1 (configuration not stated) | 0&21&8
O=C(NC1CCCCC1)c1cc2cccnc2n(Cc2ccc(F)cc2)c1=O | -38
COc1ccc(CN2CC3(CCN(c4ncccn4)C3)C2)cc1 | -58
Cc1ccc(C(=O)N2CCC(NC(C)Cc3ccccc3F)CC2)cc1 (configuration not stated) | -6

(cont.)
compound | Tgondii IFNg
COCCN1C(=O)C2(CCN(Cc3cccn3C)CC2)c2ccccc21 | 1
COc1ccc(NC(C)=O)cc1NC(=O)c1cc2cccnc2n(Cc2ccccc2)c1=O | -12
CCS(=O)(=O)N1CCC2(CN(c3cccnc3)C(=O)CN2C)C1 (configuration not stated) | 204
Cc1cccc(CN2CC[C@H]3[C@@H]2CCN3C(=O)c2sccc2C)n1 | 41
COc1ccc(CCNC(=O)c2cc3cccnc3n(Cc3ccccc3)c2=O)cc1 | 21

Screens as filed in PubChem BioAssay.

An excerpt (hit frequency here may not be typical).
